Source: PubChem BioAssay
MgrA-DNA mod: S. aureus MgrA activity modulators, primary screen, biochemical, S. aureus Newman, fluorescence polarization. MgrA-DNA binding. inhibition, %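 (about 10 µg/mL by stock and volumes)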. 84,000 tested, 0.13% active;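 active means above 50% in either of two replicates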;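 further: 0% = protein plus DNA without compound and 100% = DNA alone without protein; higher means less MgrA bound to DNA so lower polarization; one replicate is shown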
S aureus helic: inhibitors of S. aureus replicative helicase, primary screen, biochemical, fluorescence unwinding readout | 120,000 tested, 0.05% active | purified S. aureus helicase, fluorescence unwinding assay; about half of the hits fall short of the stated cut | replicative DNA helicase (DnaC/DnaB), Staphylococcus aureus | inhibition, %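 (tested at about 80 µM)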 | AID 485395, 2010;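 active means both duplicates at 50% or more, or one of them with a favoured structure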;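 further: 0% = mean of negative control wells and 100% = mean of positive control wells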
* hit, by the source's call; · = no result given. This is a subset, so the mix of outcomes need not match the whole.

1) O=c1c2ccccc2nc(-c2ccco2)n1-c1nccs1
2) O=C1NC(=O)C(=Cc2ccccc2)C(=O)N1
3) c1ccc(C2CN3CCC2CC3)cc1 (stereo not given)
4) Fc1ccc(CNC2=NCCS2)cc1
5) CCOC(=O)C1=C(C)OC(N)=C(C#N)C12C(=O)Nc1ccccc12 (stereo not given)
Screen / compound no.	1	2	3	4	5
MgrA-DNA mod	2.1	·	·	4.2	0.3
S aureus helic	-3	0	14	·	·

6) c1ccc(CN2CCN(Cc3ccc4c(c3)OCCO4)CC2)cc1
7) CN1C2CCC1CC(OC(=O)C(c1ccccc1)c1ccccc1)C2 (stereo not given)
8) CCOP(=S)(NC)OCC
9) Cc1ccc2c(c1)C(c1ccc(F)cc1)=NCC(=O)N2
10) CN[C@@H]1CC2OC(C)([C@@H]1OC)n1c3ccccc3c3c4c(c5c6ccccc6n2c5c31)C(=O)NC4 (stereo not given in full)
Screen / compound no.	6	7	8	9	10
MgrA-DNA mod	-3.5	·	0.8	·	-1.1
S aureus helic	0	1	21	-19	·

11) CN1CC=C(c2c[nH]c3ccccc23)CC1
12) Cc1cc(Br)cc(Br)c1
13) COc1ccc2c(c[n+](C)c3c4cc5c(cc4ccc23)OCO5)c1OC
14) Cc1c(Br)c([N+](=O)[O-])nn1CC(=O)Nc1ccc(Cl)cc1C(=O)c1ccccc1
15) c1csc(CNC2=NCCS2)c1
Screen / compound no.	11	12	13	14	15
MgrA-DNA mod	·	·	-3.2	-1.3	·
S aureus helic	-5	-17	·	·	-18

16) Cc1cc(Nc2ccc(N3CCCC3)cc2)n2c(nc3ccccc32)c1C#N
17) COc1ccc(NC(=O)N2Cc3ccccc3-n3cccc3C23CCN(C)CC3)cc1
18) Cc1nc(-c2ccccn2)nc(NCCc2ccccc2)c1Cl
19) CNC(=O)O/N=C(\N)c1c(-c2c(F)cccc2Cl)noc1C
20) COc1cccc(NC2=NC(C)(C)CS2)c1
Screen / compound no.	16	17	18	19	20
MgrA-DNA mod	·	·	1.2	-1.9	1.4
S aureus helic	9	7	·	·	14

21) COc1ccc2c(c1OC)C(=O)O[C@@H]2[C@@H]1c2cc3c(cc2CCN1C)OCO3
22) COc1cc(/C=C(\C)[N+](=O)[O-])cc(OC)c1
23) CN(C)P1(N(C)C)=NC(C(F)(F)F)=NC(C(F)(F)F)=N1
24) Oc1cccc2cccnc12
25) Cc1cc(=O)oc2cc(OC(=O)N(C)C)c(Cl)cc12
Screen / compound no.	21	22	23	24	25
MgrA-DNA mod	3.3	1.6	·	3.0	3.2
S aureus helic	·	·	-4	·	·

26) CC(C)C(C(=O)O)c1ccc(Cl)cc1 (stereo not given)
27) N=c1n(CCO)c2ccccc2n1Cc1ccccc1
28) CCN1C(=O)NC(=O)/C(=C\c2cn(CC(=O)N3CCCC3)c3ccccc23)C1=O
29) OC(CNCC1CCCCC1)c1ccccc1 (stereo not given)
30) C=CCOC(=O)C1=C(C)OC(N)=C(C(=O)OCCOC)C12C(=O)Nc1ccccc12 (stereo not given)
Screen / compound no.	26	27	28	29	30
MgrA-DNA mod	0.9	·	14	·	2.7
S aureus helic	16	-4	17	18	·

Random excerpt: five records from the list
20) COc1cccc(NC2=NC(C)(C)CS2)c1
16) Cc1cc(Nc2ccc(N3CCCC3)cc2)n2c(nc3ccccc32)c1C#N
27) N=c1n(CCO)c2ccccc2n1Cc1ccccc1
2) O=C1NC(=O)C(=Cc2ccccc2)C(=O)N1
21) COc1ccc2c(c1OC)C(=O)O[C@@H]2[C@@H]1c2cc3c(cc2CCN1C)OCO3
Screen / compound no.	20	16	27	2	21
MgrA-DNA mod	1.4	·	·	·	3.3
S aureus helic	14	9	-4	0	·

(continued)
31) COc1cccc2c1cc([N+](=O)[O-])c1c(C(=O)O)cc3c(c12)OCO3
32) CC(C)N1CCC2(CC1)NC(=O)c1ccccc1O2
33) CCN1CCN(Cc2ccc(Cl)cc2)CC1
34) O=S1(=O)CC2(N3CCOCC3)CCCCC21 (stereo not given)
35) Cc1oc(-c2cccs2)nc1CSCC(=O)N1CCC2(CC1)OCCO2
Screen / compound no.	31	32	33	34	35
MgrA-DNA mod	-1.4	-0.9	-0.4	-0.1	1.2
S aureus helic	·	1	10	7	14

36) CCOC(=O)C1CCN(/C=C2/C(=O)NC(=O)N(c3ccc(OCC)cc3)C2=O)CC1
37) CC(=O)OCC(=O)[C@H]1CC[C@H]2[C@@H]3CC[C@H]4C[C@H](O)CC[C@]4(C)[C@H]3C(=O)C[C@]12C
38) Cc1ccc(C2N3CC(C)(C)CN23)cc1 (stereo not given)
39) O=C(Nc1cccnc1)c1c(O)c2ccccc2n(Cc2ccccc2)c1=O
40) CCc1c(C(=O)OC)c2cc(O)ccc2n1Cc1ccccc1
Screen / compound no.	36	37	38	39	40
MgrA-DNA mod	0.8	-0.8	·	-1.7	-1.7
S aureus helic	12	·	13	4	·

Next section, overlapping the part above by 4 compounds.
37) CC(=O)OCC(=O)[C@H]1CC[C@H]2[C@@H]3CC[C@H]4C[C@H](O)CC[C@]4(C)[C@H]3C(=O)C[C@]12C
38) Cc1ccc(C2N3CC(C)(C)CN23)cc1 (stereo not given)
39) O=C(Nc1cccnc1)c1c(O)c2ccccc2n(Cc2ccccc2)c1=O
40) CCc1c(C(=O)OC)c2cc(O)ccc2n1Cc1ccccc1
41) COCCCNC1CC2CCC1C2 (stereo not given)
42) O=P(O)(NC1CCCCC1)NC1CCCCC1
43) N#CCCn1cc(C(N)=O)c(-c2ccccc2)n1
44) CNc1ccc(C(=O)CC(O)CCC(C)C2OC(=O)CC(O)CC(=O)CC(O)CC(O)CC(O)CC(O)CC3(O)CC(O)C(C(=O)OC)C(CC(O[C@@H]4O[C@H](C)[C@@H](O)[C@H](N)[C@@H]4O)/C=C/C=C/C=C/C=C/C=C/C=C/C=C/C2C)O3)cc1 (stereo not given in full)
45) CCC1(C)CC(=O)NC(=O)C1
Screen / compound no.	37	38	39	40	41	42	43	44	45
MgrA-DNA mod	-0.8	·	-1.7	-1.7	3.7	·	0.0	3.8	10
S aureus helic	·	13	4	·	-6	-17	-14	·	·
